Source: PubChem
miR-21 FLuc = qHTS Assay for Modulators of miRNAs and/orActivators of miR-21; HeLa miR-21 FLuc reporter, luciferase, 48 h; Potency, µM (titrated, usually from 38.3 µM), without a hit: at the highest dose reporter change, positive = more light; 340,000 tested, under 10 active; active = well fitted rising curve with a large enough effect; inconclusive = small, poorly fitted or top-dose-only effect; inactive = no such curve, though single readings can be large or run the other way;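 also: % of control where 0% means no effect; miR-21 action dims this reporter so a rising signal means less miR-21 action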
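HeLa miR-21-FLuc reporter line, endogenous miR-21; 2000 cells/well in DMEM/10% FBS; compound titration up to ~40uM final, 48 h, 37 degree Celsius; luciferase detection reagent, 15 min lysis, CCD luminescence.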
Rango release inh = qHTS Assay for Inhibitors of RanGTP induced Rango (Ran-regulated importin-beta cargo) - Importin beta complex dissociation | Biochemical FRET Rango-importin beta, RanGTP-induced dissociation | Potency, µM (series often up to 46.1 µM), inactives show at the top dose activity change, negative = inhibition | actives 0.071% (n = 340,000) | AID 540253, 2011; active means falling FRET ratio curve, often poorly fitted, with flat reads before Ran was added; inconclusive means other falling curves, or compound fluorescence or quenching; inactive means flat or rising ratio curve;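 also: potency is read from the fitted curve at half-maximal effect; % of control where 0% means no effect; nearly all actives have a fitted effect of over 45% in size; -100% = wells without RanGTP and RCC1; the record marks most hits as doubtful in a second field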
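FRET read at 45 min, room temperature: inhibitors block the CFP/YFP signal rise when RanGTP (0.6 uM Ran, 2 mM GTP, 0.2 uM RCC1) frees Rango (0.1 uM) from importin beta (0.25 uM). Pre-read after 5 min compound exposure flags interference.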
Rango complex inh = qHTS Assay for Inhibitors of Rango (Ran-regulated importin-beta cargo) - Importin beta complex formation. Importin subunit beta-1 (Homo sapiens), Q14974. actives 0.031% (n = 340,000). Rango CFP/YFP FRET sensor + importin beta, 45 min. Potency, µM (titrated, usually from 92.2 µM), inactives show at the top dose inhibition of complex formation. AID 540263, 2011; active = rising FRET ratio curve, often small or poorly fitted; inconclusive = mostly compound fluorescence or quenching in the first reads; inactive = flat curves in all reads;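 also: potency is read from the fitted curve at half-maximal effect; 0% = DMSO wells and 100% = buffer wells lacking importin beta; nearly all actives have a fitted effect of over 15% in size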
Target sequence (Q14974 whole entry, looked up): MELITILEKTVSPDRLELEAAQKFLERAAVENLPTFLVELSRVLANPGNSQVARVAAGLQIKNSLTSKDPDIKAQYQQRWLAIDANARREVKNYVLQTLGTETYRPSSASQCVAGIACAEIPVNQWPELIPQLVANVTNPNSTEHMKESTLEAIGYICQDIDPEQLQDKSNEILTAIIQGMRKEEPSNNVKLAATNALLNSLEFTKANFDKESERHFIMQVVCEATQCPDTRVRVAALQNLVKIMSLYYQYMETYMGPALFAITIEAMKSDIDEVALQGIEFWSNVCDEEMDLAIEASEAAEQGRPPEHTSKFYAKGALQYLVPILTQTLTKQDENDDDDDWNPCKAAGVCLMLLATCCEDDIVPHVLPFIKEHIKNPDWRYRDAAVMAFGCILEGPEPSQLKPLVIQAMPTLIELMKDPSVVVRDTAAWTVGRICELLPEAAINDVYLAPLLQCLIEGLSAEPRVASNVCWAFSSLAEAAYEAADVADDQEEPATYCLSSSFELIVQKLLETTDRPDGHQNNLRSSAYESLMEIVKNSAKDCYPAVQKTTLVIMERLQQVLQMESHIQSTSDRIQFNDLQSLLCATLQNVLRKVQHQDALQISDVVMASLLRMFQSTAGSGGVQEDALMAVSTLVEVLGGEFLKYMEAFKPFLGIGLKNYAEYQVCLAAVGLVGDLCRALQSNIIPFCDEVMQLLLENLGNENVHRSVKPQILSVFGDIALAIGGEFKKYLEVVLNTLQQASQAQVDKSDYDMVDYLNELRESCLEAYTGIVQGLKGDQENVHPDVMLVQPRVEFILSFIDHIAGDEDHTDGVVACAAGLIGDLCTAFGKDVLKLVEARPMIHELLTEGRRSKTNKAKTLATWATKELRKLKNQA
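FRET biosensor Rango (snurportin 1 IBB between N-terminal EYFP and C-terminal Cerulean), 50 nM in PBS/1 mM DTT/0.02% Tween-20/0.1% BSA, preincubated 5 min RT with compound; 0.125 microM importin beta added, 45 min RT, CFP/YFP FRET ratio read.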
GLA inh pH 4.5 = qHTS Assay for Inhibitors of Human alpha-Galactosidase at pH 4.5; AID 1467, 2008; purified enzyme, 4-MU-alpha-Gal fluorescence, pH 4.5; 230,000 tested, under 10 active; activity change, negative = inhibition, % at 105 µM; inconclusive = small, poorly fitted or top-dose-only inhibition, or a rising curve; inactive = flat fitted curve, though single readings scatter; no compound was filed as active;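 also: 0% = full activity with enzyme and -100% = basal without enzyme; dose as in the result columns while the protocol names 77 µM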
An asterisk follows results filed as active; ? = inconclusive; / = not tested or not shown; & = joins results of further samples.

SMILES	miR-21 FLuc	Rango release inh	Rango complex inh	GLA inh pH 4.5
CC(C)C(=O)Nc1c(C(=O)N2CCN(c3ncccn3)CC2)oc2ccccc12	-4.8%	1.1%	-2.2%	/
Cc1ccc(N/C=C/C(=O)c2ccccc2)cc1Br	-62.1%	?	?	/
COc1ccc(OC)c(-c2csc(NC(=O)c3ccc(F)cc3)n2)c1	12.4%	31.5%	2.2%	/
CCNC(=O)C1(c2ccccc2)CCCC1	-8.2%	-0.3%	0.5%	-18.3
CC(=O)c1sc(=S)n(Cc2ccccc2)c1C	-4.2%	-1.7%	-0.4%	/
Clc1ccc(-c2cc3ccccc3[nH]2)cc1	-37.8%	-14.4%	0.4%	-15.9
NS(=O)(=O)c1ccc(-c2ccc(/C=C3\C(=O)Nc4cc(Cl)ccc43)o2)cc1	-18.5%	1.2%	3.5%	-2.1
COc1ccc(CCNC(=O)c2cc(S(=O)(=O)N(C)C)ccc2N2CCCC2)cc1OC	-1.3%	0.0%	-3.2%	/
COc1ccc(Cc2nnc(NC(=O)C3CC(=O)N(c4ccc(OC)cc4)C3)s2)cc1 (configuration not stated)	-4.4%	-2.4%	2.0%	/
Cc1ccc(/C=N/N2CCN(Cc3cccc4ccccc34)CC2)o1	5.2%	0.6%	3.7%	-3.7
CCN(CC)S(=O)(=O)c1ccc(N2CCOCC2)c(NC(=O)C(=O)c2c(-c3ccccc3)cc3ccccn23)c1	-1.9%	5.1%	-4.3%	1.2
O=C1NCCCC1C(=O)NCCN1C(=O)CCC1=O (configuration not stated)	-5.2%	-12.5%	0.0%	2.2
CCOc1ccccc1C(=O)N[C@H](C(=O)OCc1cc([N+](=O)[O-])cc2c1OCOC2)C(C)C	-6.0%	-11.4%	-0.3%	-0.9
Cc1ccc(OCCCC(=O)Nc2ccc(S(N)(=O)=O)cc2)cc1	0.3%	-0.2%	2.0%	-1.4
O=[N+]([O-])c1ccc(NCCCO)c(C(F)(F)F)c1	-9.2%	-9.6%	0.6%	-2.8
CN(CC(=O)Nc1ccccc1Br)C(=O)c1ccc2c(=O)n3c(nc2c1)CCC3	/	-16.8%	0.3%	/
Cc1cc(C)cc(NC(=O)CSCc2nc3c(nnn3Cc3ccc(F)cc3)c(=O)[nH]2)c1	/	-7.4%	-7.5%	/
Cc1cc(NC(=O)CCC(=O)N(CC(=O)NC2CCCC2)c2ccccc2)no1	-8.4%	-1.7%	-1.5%	-2.3
CN1C(c2ccccc2)=NO[C@]1(C)c1ccccc1	/	-2.1%	-1.7%	/
CNC(=S)NNC(=O)c1ccc2c(c1)OCO2	-17.8%	-0.4%	-1.2%	5.4

Results in Rango complex inh, Rango release inh and GLA inh pH 4.5, for some of the entries so far:
mol	Rango complex inh	Rango release inh	GLA inh pH 4.5
CCOc1ccccc1C(=O)N[C@H](C(=O)OCc1cc([N+](=O)[O-])cc2c1OCOC2)C(C)C	-0.3%	-11.4%	-0.9
O=C1NCCCC1C(=O)NCCN1C(=O)CCC1=O (configuration not stated)	0.0%	-12.5%	2.2

Returning to the listing, starting 2 compounds before the break.
SMILES	miR-21 FLuc	Rango release inh	Rango complex inh	GLA inh pH 4.5
CN1C(c2ccccc2)=NO[C@]1(C)c1ccccc1	/	-2.1%	-1.7%	/
CNC(=S)NNC(=O)c1ccc2c(c1)OCO2	-17.8%	-0.4%	-1.2%	5.4
CCOC(=O)c1nn(-c2ccc(C)cc2)cc1C(=O)c1ccccc1	-38.7%	-17.1%	1.3%	-6.2
OC[C@H]1O[C@H](OC[C@H]2OC(O)[C@H](O)[C@@H](O)[C@@H]2O)[C@H](O)[C@@H](O)[C@@H]1O (some centres not stated)	/	-4.2%	-1.9%	/
Cn1cc(S(=O)(=O)N2CCN(Cc3ccccc3)CC2)c(=O)n(C)c1=O	-3.0%	2.2%	0.2%	-0.5
COc1cc(/C=N/NC(=O)COc2cc(C)cc(C)c2)ccc1OS(=O)(=O)c1ccc(C)cc1	-9.0%	?	0.0%	-1.2
Cc1cc(C)c(NC(=O)CN2CCC(NC(=O)NC3CCCCC3)CC2)c(C)c1	0.6%	/	/	13.9
O=C(OCC(=O)N1CCN(c2ccccc2)CC1)c1cccc(Cl)c1	1.6%	16.3%	-0.1%	4.5
Cc1csc(=Nc2cccnc2)n1CC1CCCCC1	0.0%	41.8%	10.5%	10.2
CN1CCC(CC(C(=O)N2CCCC2)(c2ccccc2)c2ccccc2)C1 (configuration not stated)	/	7.9%	-2.0%	/
CSc1ccccc1N1CCN(C(=O)Nc2ccc3c(c2)NC(=O)CO3)CC1	13.9%	-5.3%	-2.3%	-20.8
O=C1CSC(c2ccc(F)c(F)c2)N1c1ccccc1F (configuration not stated)	-3.6%	6.0%	0.3%	/
O=C(NNC(=O)c1nn(-c2ccc(F)cc2)ccc1=O)c1ccccc1Cl	-3.4%	13.2%	-2.5%	-9.1
CN1C(=O)[C@@H]2[C@@H]3C[C@@H]([C@H]4ON=C(c5ccccc5OCC#N)[C@@H]34)[C@@H]2C1=O	0.6%	-21.2%	-4.9%	-4.2
Cn1c(CC(=O)Nc2ccc(Cl)c(Cl)c2)nnc1SCC(=O)NCc1ccccc1	1.8%	-13.1%	3.8%	5.1
CCOc1ccc(N(CC(=O)Nc2ccc(C)cc2)S(C)(=O)=O)cc1	-57.0%	-19.4%	0.7%	/
N=P(N1CCOCC1)(N1CCOCC1)C12CC3CC(CC(C3)C1)C2	0.0%	-2.7%	0.3%	1.4
CCOC(=O)c1cc(NC(=O)CC(C)(C)CC(=O)O)ccc1N1CCCCC1	-12.0%	0.5%	1.0%	3.6
S=C(Nc1ccc(Cl)cc1)NN1CCOCC1	-12.3%	2.8%	-3.9%	4.8
OC(CN1CCN(Cc2ccccc2)CC1)c1ccc(Br)cc1 (configuration not stated)	/	-2.2%	4.0%	/
CCOC(=O)C(CCC(=O)O)(CCC(C)C)c1csc(N)n1 (configuration not stated)	-3.3%	0.3%	1.5%	5.3
Cc1cc(Br)ccc1SCC(=O)OCC(=O)NC1CC1	-5.8%	-6.2%	-6.3%	-9.3
Cc1cc(C)cc(N(CCC(=O)O)S(=O)(=O)c2ccc3ccccc3c2)c1	17.8%	1.5%	0.8%	4.3
C=CCOC(=O)CCCC(=O)NC1CCCCC1	-0.7%	0.1%	-4.9%	3.1
O=C(NCc1ccco1)C(=O)NCC1OCCN1C(=O)c1ccc(Cl)cc1 (configuration not stated)	-1.3%	-15.5%	2.5%	4.7
O=C(O)c1nn(-c2ccccc2)c(-c2ccccc2)c1C(=O)c1ccccc1	-2.6%	-11.9%	-0.8%	6.2
Cc1ccc(S(=O)(=O)N2CC(O)CC2C(=O)Nc2ccc3c(c2)CCC3)cc1 (configuration not stated)	-6.7%	2.5%	-0.6%	6.1
Nn1c(SCC(=O)NC2CCCCC2)nnc1C1CC1	-1.0%	2.9%	-0.3%	2.2
O=C1SC(c2ccccc2)=C/C1=C\N1CCCCC1	-19.9%	2.0%	-0.8%	1.3
COc1ccc(NC(=O)Nc2cc(NC(=O)Nc3ccc(OC)cc3)c(C)nc2C)cc1	-7.4%	6.0%	2.2%	5.6
COc1ccc2c(c1)CCCN2C(N)=Nc1ccc(Cl)cc1	13.4%	-13.3%	2.1%	5.9
Cc1ccc(-n2nc(CN3CCOCC3)c(-c3ccccc3)c2N)c(C)c1	-0.4%	-10.3%	-3.3%	-4.2
O=C(CN1C(=O)NC2(CCCCCC2)C1=O)N1CCN(S(=O)(=O)c2ccc(Cl)cc2)CC1	0.9%	-13.5%	-0.9%	5.8
COC/C=C/C1=CC2=CC(=O)C(C)(OC(=O)c3cnc4ccccc4n3)C(=O)C2=CN1Cc1ccc(OC)cc1 (configuration not stated)	6.8%	-11.8%	0.5%	-17.0&-13.1
COc1ccc(OC)c(/C=N/NC(=O)Cc2nc3ccccc3[nH]2)c1	-1.3%	6.5%	-2.2%	5.8
COc1ccccc1NC(=O)CNC(=O)Cn1c(C)cc2ccccc2c1=O	0.6%	-17.6%	1.5%	/
COc1ccc(CNC(=S)N2CCN(Cc3ccccc3)CC2)cc1	-0.6%	37.9%	-2.7%	9.3
COc1ccc(OC)c(NC(=O)Cn2cnc3c(cnn3-c3ccccc3)c2=O)c1	-3.6%	-0.8%	-6.8%	1.1
CSc1nnc(-c2ccc(S(=O)(=O)N3CCOCC3)cc2)n1C	9.8%	-5.9%	-4.2%	/
O=C(COc1ccc(F)c(Cl)c1)N1CCCCCCC1	-0.3%	8.8%	-2.1%	/
COc1ccccc1C(O)P(=O)(OC(C)C)c1ccc(N(C)C)cc1 (configuration not stated)	-0.8%	3.5%	10.3%	1.4
C=CCOc1c(Cl)cc(CNc2ccc3[nH]c(=O)[nH]c3c2)cc1OC	22.3%	-10.4%	1.9%	-0.1
CN(c1ccccc1)S(=O)(=O)c1ccc(Cl)c(C(=O)OCC(=O)NCc2ccco2)c1	-0.9%	-16.7%	0.0%	-3.8
C=C1CCN([C@H](C(=O)NCc2cc(OC)c(OC)c(OC)c2)C(C)C)S(=O)(=O)c2ccccc21	-0.8%	19.1%	?	-2.8
C=CCc1ccc(OCCCCN2CCC(C)CC2)c(OC)c1	-1.8%	-6.3%	-1.7%	-6.6
Cc1nc2sc(C(c3ccc(C(C)C)cc3)N3CCN(CCO)CC3)c(O)n2n1 (configuration not stated)	-11.5%	0.8%	-1.4%	-0.3
O=C(Cn1cccc1C(=O)c1ccccc1)NCc1ccccc1Cl	-62.9%&-47.1%	16.0%	-2.5%	/
Cc1cc(C)c2[nH]c(O)c(N=Nc3ccc(C(=O)O)cc3)c2c1	-24.7%	1.4%	11.2%	/
Cc1cc([N+](=O)[O-])ccc1NC(=O)c1cncc(Br)c1	0.1%	12.5%	-3.3%	-2.8
O=C(COC(=O)CCc1nc2ccccc2s1)NCc1ccco1	-1.1%	16.6%	3.4%	11.3
COc1ccc(/C=C/C(=O)NC(=S)NNC(=O)c2cccs2)cc1	2.8%	-5.3%	-1.4%	-3.3
C=CCn1cnc2c(nnn2-c2ccc(C)c(Cl)c2)c1=O	-33.6%	-16.8%	1.7%	1.3
(cont.)
SMILES	miR-21 FLuc	Rango release inh	Rango complex inh	GLA inh pH 4.5
COc1cccc(C2=CC(c3cccc(OC)c3OC(F)F)n3nnnc3N2)c1 (configuration not stated)	-4.8%	?	?	4.8
CCOc1ccc(NC(=O)C[n+]2ccccc2)cc1	-3.7%	-0.3%	0.0%	-4.1
CC(=O)Nc1ccc(NC(=O)C2CCN(S(=O)(=O)c3ccc4c(c3)OCCO4)CC2)cc1	/	15.8%	1.1%	/
CC(=O)c1ccc(N2CCN(S(=O)(=O)c3ccc4c5c3CC(=O)N5CC(C)S4)CC2)cc1 (configuration not stated)	15.2%	-5.6%	1.6%	/
COc1ccccc1Oc1ccc(S(=O)(=O)N2CCOCC2)cc1S(=O)(=O)N1CCOCC1	-2.1%	3.2%	0.6%	-6.5
CCCC1NC(=S)N(C2CCCCC2)C1=O (configuration not stated)	-8.6%	-8.1%	-3.9%	-1.5
CCCNC(=O)c1nnsc1S(=O)c1ccc(Cl)cc1 (configuration not stated)	?	13.0%	-1.3%	1.5
O=C(O)c1cncc(Br)c1	-10.4%	15.1%	-0.5%	0.8
C=CCN1C(=O)CSC1=Nc1cccc(O)c1	-6.5%	-10.7%	-3.1%	2.7
Cc1nc2ccccc2c(=O)n1/N=C/c1ccccc1Cl	-64.7%	27.4%	3.6%	/
CCN(CC)S(=O)(=O)c1ccc(NC(=O)CO/N=C(\N)c2ccccc2)cc1	/	7.3%	-1.0%	/
Cc1ccc(S(=O)(=O)N2CCCC2C(=O)OCc2ccccc2)cc1 (configuration not stated)	-2.9%	12.7%	-0.2%	5.1
COc1ccc(NS(=O)(=O)c2ccc(NC(=O)C3CCCO3)cc2)cc1 (configuration not stated)	10.9%	-12.4%	-6.6%	2.7
Cc1ccc(O)c(NC(=S)NC(=O)C(C)C)c1	-23.5%	13.0%	4.1%	2.5
CN(C1(C)CCS(=O)(=O)C1)S(=O)(=O)c1cccc([N+](=O)[O-])c1 (configuration not stated)	/	9.4%	-2.9%	/

A portion of the library, so the mix of outcomes need not match the whole.
